From PubChem
2A StopGo – FMDV 2A StopGo reporter, luciferase signal; human cells with a luciferase reporter of 2A StopGo recoding; control for the full effect not named in the record; Potency, µM (highest dose often 57.9 µM), for the others: top-dose signal change, negative = less light; actives 1.2% (n = 410,000); active = well fitted falling curve with a large enough effect; inconclusive = small, poorly fitted or top-dose-only effect; inactive = no such curve, though single readings can be large or run the other way; tested in HEK293T cells; note: % is set by controls: 0 for no effect and ±100 for the full control effect; nearly all actives have a fitted effect of over 45% in size; luciferase light after 4 h
RE007 growth inh – less growth of the S. pombe RE007 Vpr strain. S. pombe RE007 Vpr strain, BacTiter-Glo ATP luminescence, 24 h; control for the full effect not named in the record. Potency, µM (titrated, usually from 92.2 µM), without a hit: at the top dose activity change, negative = less growth. actives 0.21% (n = 360,000); active = well fitted falling curve with a large enough effect; inconclusive = small, poorly fitted or top-dose-only effect; inactive = no such curve, though single readings can be large or run the other way;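 note: % is set by controls: 0 for no effect and ±100 for the full control effect; nearly all actives have a fitted effect of over 50% in size; the assay follows cell death caused by Vpr and the record does not say whether a fall means rescue or toxicity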
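Fission yeast RE007 carrying one integrated HIV-1 vpr copy, seeded at OD 0.01 in PMG+AL medium with 23 nL pinned compound. Grown 24 h at 30 degrees; viability read by BacTiter-Glo luminescence after 5 min.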
NS1 inh – inhibitors of influenza NS1 protein function; Potency, µM (doses to about 46.1 µM), without a hit: at the top dose activity, positive = more growth; S. cerevisiae slowed by influenza A NS1, growth recovery by OD600; AID 2326; actives 0.4% (n = 270,000); active means well fitted rising curve with a large enough effect; inconclusive means small, poorly fitted or top-dose-only effect; inactive means no such curve, though single readings can be large or run the other way; note: nearly all actives have a fitted effect of over 50% in size
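Read-out: OD600 growth recovery of NS1-expressing budding yeast. Cells grown overnight at 30C in -URA glucose medium, washed, resuspended and diluted 1:100 in 2% galactose assay medium, pH 6.0. Same strain lacking NS1 served as positive control.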
SARS PLpro yeast – SARS-CoV PLP inhibition in yeast; actives 0.19% (n = 330,000); S. cerevisiae expressing SARS-CoV PLpro, growth rescue; control for the full effect not named in the record; Potency, µM (titrated, usually from 32.9 µM), for inactives: top-dose activity, positive = growth rescue; active means well fitted rising curve with a large enough effect; inconclusive means small, poorly fitted or top-dose-only effect; inactive means no such curve, though single readings can be large or run the other way; note: 0% is about no effect; nearly all actives have a fitted effect of over 55% in size; growth read by luminescence after 48 h
Cruzain inh noDet – cruzain (T. cruzi) inhibition without detergent. purified cruzain, Z-FR-AMC fluorescence, no detergent. Potency, µM, for inactives: max response, negative = inhibition, most hits filed as inhibitors. actives 2.3% (n = 200,000);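 note: plate controls were enzyme without inhibitor for no effect and buffer without enzyme for full effect; nearly all actives have a fitted effect of over 40% in size; top concentration of the series not given in the record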
Target sequence (P25779 123-467 limits assumed): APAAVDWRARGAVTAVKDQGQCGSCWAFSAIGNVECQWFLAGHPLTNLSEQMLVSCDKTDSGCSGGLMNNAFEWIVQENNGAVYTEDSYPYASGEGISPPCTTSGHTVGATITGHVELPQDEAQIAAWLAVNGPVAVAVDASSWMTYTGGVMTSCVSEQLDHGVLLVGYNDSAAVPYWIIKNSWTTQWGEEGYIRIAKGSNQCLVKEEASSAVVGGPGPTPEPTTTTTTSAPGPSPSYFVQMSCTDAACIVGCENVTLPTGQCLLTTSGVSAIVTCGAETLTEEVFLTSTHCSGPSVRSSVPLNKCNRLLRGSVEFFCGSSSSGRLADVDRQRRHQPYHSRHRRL
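Purified cruzain at 1.5 nM, pre-incubated 15 min with compound at room temperature in 100 mM sodium acetate pH 5.5, 5 mM DTT, 0.00005% Triton X-100. Reaction started with 2 uM Z-FR-AMC; AMC fluorescence increase over 60 s gives rate.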
LASV entry inh – blocks Lassa virus binding to or entry into cells; Lassa virus pseudotype entry inhibition, cell reporter; control for the full effect not named in the record; Potency, µM (highest dose often 37.9 µM), for inactives: at the highest dose activity change, negative = inhibition, usual class: inhibitors; actives 1.2% (n = 300,000); AID 540256; active means well fitted inhibition curve with a large enough effect; inconclusive means small, poorly fitted or top-dose-only effect, or effect the other way; inactive means flat fitted curve, though single readings scatter; tested in HEK293 cells; note: % is set by controls: 0 for no effect and ±100 for the full control effect; nearly all actives have a fitted effect of over 50% in size; luciferase read-out
Cruzain Triton – inhibitors of Trypanosoma cruzi cruzain with detergent; P25779; purified cruzain, Z-FR-AMC fluorescence, 0.01% Triton; Potency, µM, without a hit: max response, negative = inhibition, hits mostly inhibitors; actives 0.43% (n = 200,000);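 note: plate controls were neutral wells for no effect and buffer without enzyme for full effect; nearly all actives have a fitted effect of over 40% in size; top concentration of the series not given in the record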
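Detergent-containing run (0.01% Triton X-100) in acetate buffer pH 5.5 with 5 mM DTT: enzyme at 1.5 nM final, 15 min compound preincubation at room temperature, then 2 uM Z-FR-AMC substrate. Activity taken as 60 s fluorescence increase at 360/450 nm.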
MARV entry inh – inhibitors of Marburg virus binding or cell entry; Marburg virus pseudotyped entry inhibition, cell reporter; control for the full effect not named in the record; about a third of the inactives were read at about 46 µM; Potency, µM (titrated, usually from 37.8 µM), without a hit: at the highest dose activity change, negative = inhibition, hits mostly inhibitors; actives 1.8% (n = 300,000); AID 540276; active = well fitted inhibition curve with a large enough effect; inconclusive = small, poorly fitted or top-dose-only effect, or effect the other way; inactive = flat fitted curve, though single readings scatter; tested in HEK293 cells; about a fifth of its hits are not listed in these tables; note: % is set by controls: 0 for no effect and ±100 for the full control effect; luciferase read-out
Numbers without * were called inactive; ? = inconclusive; nt = not tested or not shown; & = joins results of further samples; [ ] = remark or other dose. Unless noted, calls come from the whole dose curve; as a rule, active = well fitted curve in the direction sought with a large enough effect; inconclusive = small, poorly fitted or top-dose-only effect, or another doubt; inactive = no such curve, though single readings can be large; an effect the other way counts as inactive or inconclusive. Potency is the fitted concentration of half-maximal effect. Random draw from the library (roughly 4.6% active in at least one column).

SMILES	2A StopGo	RE007 growth inh	NS1 inh	SARS PLpro yeast	Cruzain inh noDet	LASV entry inh	Cruzain Triton	MARV entry inh
O=C(CCc1ccc(S(=O)(=O)NCc2ccccc2)cc1)NCC1CCCO1 (stereo not drawn)	-9%	-4%	-3%	-3%	-11%	8%	2.0%	22%
Clc1ccc2nc(CN3CCCCCC3)cn2c1	17%	14%	2%	-3%	-11%	11%	4.4%	19%
CCN(CC)P(=O)(Nc1cccc(C(F)(F)F)c1)c1ccc(N(C)C)cc1NC(=O)c1ccco1 (stereo not drawn)	-18%	3%	24%	3%	nt	nt	nt	nt
O=C(NCCc1ccccc1)c1c[nH]c2ccc(F)cc2c1=O	12%	-2%	nt	nt	nt	2%[46.1 µM]	nt	13%[46.1 µM]
CC(=NCCc1ccccc1)C1=C(O)COC1=O	-15%	1%	-6%	3%	2%	7%	-0.9%	0%[46.1 µM]
O=C(CSc1ccccn1)N1CCN(c2cccc(Cl)c2)CC1	0%	?	-3%	?	4%	7%	2.1%	-5%
O=C(NCCCN1CCOCC1)c1ccc2ccccc2c1	23%	-7%	nt	3%	nt	2%	nt	30%
NNc1cccc(C=Cc2ccccc2)cc1=O	10%	28µM*	nt	nt	nt	22%	nt	?
CCOc1ccc(NC(=O)CN(C)CC(=O)Nc2ccc(Br)cc2F)cc1OCC	-13%	-8%	nt	0%	nt	-16%	nt	?
O=C(NCc1ccc(Cl)cc1)C(=O)NCC(c1cccnc1)N1CCN(c2ccccc2)CC1 (stereo not drawn)	?	nt	nt	nt	4%	?	-4.6%	nt
Cn1ccnc1C(OC(=O)c1ccccc1)C(F)(F)F (stereo not drawn)	-8%	-1%	-2%	0%	nt	nt	nt	nt
CCOc1cc(C(=S)N2CCCC2)ccc1OCC(=O)Nc1c(C)cc(C)cc1C	-17%	-11%	11%	18%	11%	-22%	-6.1%	-24%
CCCn1c(=C(C#N)C#N)s/c(=C2\C=Cc3ccccc3N2CC)c1=O	-25%	-6%	-12%	-1%	5%	-8%	2.0%	19%&19%[46.1 µM]
Fc1ccc(NC(=S)N2CCc3[nH]c4ccccc4c3C2)cc1	-3%	10%	1%	0%	nt	nt	nt	nt
CCc1ccc(NC(=O)C2CCCN(S(=O)(=O)c3ccc4[nH]c(=O)ccc4c3)C2)cc1 (stereo not drawn)	?	-5%	1%	1%	-7%	7%[46.1 µM]	-0.1%	nt
CCOC(=O)C1(Cc2cccc(Cl)c2)CCCN(C(=O)c2ccnn2C)C1 (stereo not drawn)	2%	-11%	-6%	-1%	nt	0%	nt	6%
CN1CCN(CCCNC(=O)c2ccc3c(c2)N(Cc2ccccc2)CCS3)CC1	-4%	5%	-2%	2%	0%	nt	-15%	-6%
O=C(Cn1c(C(=O)NCCCN2CCOCC2)cc2sccc21)c1ccccc1	49%	-8%	-8%	nt	7%	?	-2.0%	2%
CCc1ccccc1NC(=O)CCCN1C(=O)C2CC=CCC2C1=O (stereo not drawn)	-17%	1%	4%	0%	nt	1%	nt	0%
O=C(Nc1ccc(F)c(Cl)c1)C1CCCN(c2ncnc3onc(-c4ccc(F)cc4)c23)C1 (stereo not drawn)	-9%	nt	nt	nt	-1%	11%[46.1 µM]	-1.3%	nt
COc1ccc(-c2cn(-c3ccc(C)cc3)c(S(=O)(=O)CC(=O)Nc3ccc(F)cc3)n2)cc1	36%[activator]	nt	nt	nt	16µM*	0%[46.1 µM]	-11%	?
Cn1c(=O)n(C)c2cc(NS(=O)(=O)c3ccc(Cl)s3)ccc21	10%	18%	nt	3%	nt	18%	nt	-7%[46.1 µM]
COc1c(S(=O)(=O)N2CCN(c3ccc(F)cc3)CC2)ccc(Cl)c1Cl	-13%	18%	3%	-4%	?	-14%	-4.1%	-2%
COc1ccc(NC(=S)Nc2ccccc2F)c(OC)c1	6%	13%	-4%	5%	-2%	14%	5.8%	19%
CC1(C)CC2CC(C)(CN2/C=C2/CCCCC2=O)C1 (stereo not drawn)	-28%	2%	0%	-1%	nt	-19%	nt	-5%[46.1 µM]
CC(C)CCn1c(S(=O)(=O)O)nc2ccccc21	13%	-3%	-19%	4%	-1%	-1%	-0.8%	5%
CCCCn1c(SCC(N)=O)nc2ccc(N3CCOCC3)cc2c1=O	1%	9%	?	12%	7%	-5%	0.4%	5%
NC(=O)C1CCN(CC(=O)Nc2ccc3c(c2)OCCO3)CC1	-8%	-13%	nt	1%	nt	-4%	nt	11%
CCOc1cc(CNCCO)c(Cl)cc1OCC(=O)NCCc1ccccc1	10%	-4%	-10%	-2%	7%	-18%	4.0%	-7%
CC(C)(C)NC(=O)C(OC(=O)c1ccco1)c1ccc(Cl)cc1 (stereo not drawn)	3%	2%	4%	-3%	nt	nt	nt	nt
COc1ccc(/C=C2/C(=O)NC(=O)N(c3ccccc3)C2=O)cc1CN1C(=O)c2ccccc2C1=O	-22%	-3%	-3%	1%	nt	nt	nt	nt
COc1ccc(CCn2c(C(C)C)nc3c(c(=O)c4ccccc4n3C)c2=O)cc1	?	4%	5%	5%	-22%	-3%	-6.3%	3%
CCN1CCC2(CC1)C(C#N)=C(N)Oc1c2sc2nc(C)cc(C)c12	4%	-15%	-4%	-2%	-7%	10%	-3.5%	-27%[46.1 µM]
CCCc1[nH]nc2c1C(/C(C)=C/c1ccccc1)C(C#N)=C(N)O2 (stereo not drawn)	nt	5%	-3%	5%	-1%	-13%	-9.5%	?
CCC12CN3CC(C)(CN(C1)C3c1c[nH]c3ccc(OC)cc13)C2=O (stereo not drawn)	-8%	nt	nt	nt	-1%	nt	-3.0%	-12%[46.1 µM]
CC(=O)N1C(=O)C(=C2C=C(C)OC(C)=C2)c2ccccc21	13%	8%	-10%	6%	-15%	21%	-5.1%	13%
Cc1cccc(NC(=O)NCCc2c[nH]c3ccccc23)c1	-6%	8%	-1%	0%	1%	-1%	-10.0%	?
Cc1nc2nc(SCC(=O)O)nn2c(C)c1Cc1c(F)cccc1Cl	12%&6%	4%	nt	3%	-22%	-2%&6%[46.1 µM]	0.7%	17%&17%[46.1 µM]
COCCN1C(=O)c2oc3ccccc3c(=O)c2C1c1cccc(O)c1 (stereo not drawn)	-15%	3%	-2%	-4%	6%	nt	-1.3%	nt
COc1ccc(CNC(=O)Cn2c(=O)nc(-c3ccccc3)c3ccccc32)cc1OC	-53%	nt	nt	nt	-4%	-28%[46.1 µM]	-0.5%	nt
Cc1cc2c(cc1S(=O)(=O)Nc1c(C)cccc1C)n(C)c(=O)c(=O)n2C	-11%	9%	23%	?	nt	nt	nt	nt
O=C(CCN1C(=O)C2C3C=CC(C3)C2C1=O)Nc1ccc2ncccc2c1 (stereo not drawn)	32%[activator]	3%	-5%	5%	5%	20%	3.5%	0%
COc1cc2c(C(=O)O)c(C)n(C)c2c2ccccc12	-6%	-5%	-3%	-1%	nt	nt	nt	nt
CCCNC(=O)Nc1ccc(C(F)(F)F)cc1	38%[activator]	-11%	-4%	-3%	nt	-21%	nt	14%
O=c1c(Cc2c(F)cccc2Cl)c(O)ccn1CCc1ccccn1	27%	-6%	-3%	5%	nt	0%[46.1 µM]	nt	0%[46.1 µM]
Cc1ccc(CN2C(=NC(=O)CCC(=O)O)SC3CS(=O)(=O)CC32)cc1 (stereo not drawn)	-10%	4%	2%	-5%	nt	1%	nt	2%[46.1 µM]
CSCC(=O)N1CCC(n2nccc2NC(=O)CCc2ccccc2)CC1	-3%	-3%	4%	-3%	nt	nt	nt	nt
Cc1cc([N+](=O)[O-])ccc1NCc1ccc2ccccc2c1	nt	-10%	9%	4%	-15%	9%	-4.4%	-25%
COC(=O)c1ccc2c(=O)[nH]c(CSc3nnc(C(F)(F)F)n3C)nc2c1	-22%	-2%	12%	-6%	-17%	8%	-2.1%	-1%
CCCCN(C(=O)c1[nH]c(C)c(C(=O)OCC)c1C)c1c(N)n(CCCC)c(=O)[nH]c1=O	16%	-8%	nt	-1%	nt	10%[46.1 µM]	nt	10%
COC(=O)Cc1n[nH]c(=O)c2ccccc12	nt	-9%	1%	12%	-5%	-1%	-2.5%	7%
COc1ccc(C(O)C(CC(=O)NCCCOC(C)C)C(=O)NCCCOC(C)C)cc1OC (stereo not drawn)	-15%	1%	1%	7%	5%	10%	0.6%	?
CC(C)(C)c1cc(CCC(=O)NNC(=O)c2ccco2)cc(C(C)(C)C)c1O	-19%	-13%	-2%	21%	4%	1%	-1.4%	8.9µM*
COc1ccc(S(=O)(=O)c2c(Nc3c(C)cccc3C)sc(C(=O)c3ccc4c(c3)OCO4)c2N)cc1	11%	nt	nt	nt	7.9µM*	?	-2.8%	nt
S=c1[nH]nc(NCCc2ccccc2)s1	-3%	-2%	13%	-1%	nt	24%[46.1 µM]	nt	10%[46.1 µM]
CC(=O)Nc1ccc(S(=O)(=O)N2CCC(NC(=O)C(Cc3cccc(F)c3)NC(C)=O)CC2)cc1 (stereo not drawn)	0%	27%	3%	1%	nt	-3%[46.1 µM]	nt	8%[46.1 µM]
COc1ccccc1CNC(=O)COC(=O)c1cc(S(=O)(=O)N2CCOCC2)ccc1Cl	-2%	-20%	nt	-3%	nt	3%	nt	17%
CCOc1ccc(NC(=O)c2nsc(Cl)c2Cl)cc1	17%	-27%	-2%	-3%	nt	?	nt	?
CCCNC(=O)Cn1c(=O)n(C)c2ccccc21	-6%	-3%	12%	1%	nt	nt	nt	nt
Cc1cc(C)nc(N2CCC(C(=O)NNC(=O)c3ccc(Cl)cc3)CC2)n1	-8%	-5%	12%	-1%	nt	nt	nt	nt

Further records follow:
SMILES	2A StopGo	RE007 growth inh	NS1 inh	SARS PLpro yeast	Cruzain inh noDet	LASV entry inh	Cruzain Triton	MARV entry inh
COC(=O)c1c(C)noc1-c1snnc1C	-9%	12%	7%	0%	nt	nt	nt	nt
COc1cc(CN2CCNC(=O)C2CC(=O)N2CCCN(C(C)=O)CC2)cc(OC)c1 (stereo not drawn)	-5%	1%	19%	-4%	nt	4%	nt	4%
O=C(Nc1cccc2ccccc12)N1CCCN(c2c(Cl)cncc2Cl)CC1	-27%	6%	-5%	0%	nt	?	nt	?
Cc1nc(SCC(=O)Nc2ccc(S(=O)(=O)N3CCOCC3)cc2)c2c(C)c(C)sc2n1	-21%	5%	nt	2%	nt	1.1µM*	nt	?
